Mtb hypoxia rep = PubChem AID 1159583; actives 0.1% (n = 300,000); M. tuberculosis hypoxia-regulated fluorescent reporter, fluorescence; fluorescence inhibition, % (no concentration beside the values);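 active = 35 to 45% if threefold the growth effect, above 45% if 1.5-fold the growth effect; inactive = the rest, general growth blockers included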;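 also: wells of about 50 µL received 100 nL stock; 0% = vehicle wells and 100% = reference inhibitor wells; whole bacteria with a GFP reporter of the hypoxia response; strong numbers were not always called active; many hits fall short of the cut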
ugtP null kill = growth inhibition of ugtP-null S. aureus, primary screen, RN4220 ugtP deletion, OD600 | 16 h; some inactives read as strong as hits | growth inhibition, % (test concentration not listed) | actives 0.54% (n = 330,000) | AID 1259309, 2017;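 active = z-score under -3 and OD600 up to 0.15 on both plates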;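 also: plate controls were untreated wells for no effect and antibiotic for full effect; wells of about 80 µL received 100 nL stock; the first replicate is given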
BJeLR lethal = MLPCN primary cell-based screen for lethality selective to Ras in HRASV12 cells | actives 0.17% (n = 300,000) | inhibition, % (test concentration not listed) | BJeLR (HRASV12) viability, CellTiter-Glo ATP luminescence, 48 h; reference of the scale not given here;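 active = replicate mean above 50%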;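 also: 50 nL library stock added to about 25 µL; numbers are from one replicate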
RN4220 kill = growth inhibition of S. aureus RN4220, primary screen, OD600; 16 h; inhibition, % (no concentration beside the values); actives 0.33% (n = 330,000); AID 1259311, 2017;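 active = z-score of -3 or lower and OD600 up to 0.18 on both plates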;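 also: plate controls were untreated cells for no effect and reference antibiotic for full effect; stock transfer was 100 nL into about 80 µL; one replicate is shown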
PrP 5UTR inh = inhibition of PrP 5' UTR reporter expression; cell-based PrP 5' UTR mRNA reporter, plate reader; inhibition, % (test concentration not listed); actives 0.35% (n = 340,000);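 active = every replicate at 50% or more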;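 also: 0 = median of the neutral control wells; tested in H4 reporter cells; numbers are from one replicate; inactives centre near -14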
Bead autofluor = counter-screen for toxin protease inhibitors: compound fluorescence. compound autofluorescence counterscreen, microsphere flow cytometry; hits give high values. fluorescence intensity (test concentration not listed). actives 3.1% (n = 360,000);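 active = at least 3 SD above the mean of all compounds, about 16000 in these data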;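 also: 100 nL of 1 mM stock went into each well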
Mtb hypoxia rep growth = also measured in Mtb hypoxia rep; calls as there; growth inhibition, %; measured here: M. tuberculosis growth (absorbance);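 0% = vehicle and 100% = reference antibiotic; read after six days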
The depositor's hits bear a star; / = not tested or not shown.

SMILES	Mtb hypoxia rep	Mtb hypoxia rep growth	ugtP null kill	BJeLR lethal	RN4220 kill	PrP 5UTR inh	Bead autofluor
O=C(CN1CCc2ccccc2C1)Nc1cc(S(=O)(=O)N2CCOCC2)ccc1N1CCCC1	-3	-2	3	-1	8.6	-24	5096
Cc1ccc(OCC(=O)NCc2ccco2)c([N+](=O)[O-])n1	13	5	5	7	9.0	-22	4413
COc1cc(/C=C/C(=O)OCC(=O)N2CC3(C)CC2CC(C)(C)C3)ccc1O (stereo unspecified)	-4	10	8	-14	3.3	-10	2210
COc1ccccc1N1CCN(C(=O)c2ccccc2SCC(=O)N2CCCC2)CC1	-4	-4	-4	/	-2.2	-6	3765
Cn1cccc1Cc1nnc(SCC(=O)Nc2ccc(Cl)cc2)n1-c1ccc(F)cc1	/	/	-12	-5	-1.4	-19	5359
Fc1cccc(CCN2C(=S)NC[C@@H]2Cc2ccccc2)c1	/	/	/	-10	/	-13	3400
CCCCNS(=O)(=O)c1ccc(S(=O)(=O)N2CCC3(CC2)OCCO3)cc1	4	3	12	-6	0.2	-5	2362
CC(OC(=O)c1ccc([N+](=O)[O-])o1)C(=O)Nc1nc(-c2ccc(F)c(F)c2)cs1 (stereo unspecified)	0	1	11	/	6.8	-53	4692
COc1ccc(Cl)cc1NC(=O)CN(C)C(=O)Cn1[nH]c(=O)c2ccccc2c1=O	2	-2	1	/	2.7	-4	3084
COc1cc(N=CC2=C(O)c3ccccc3C2=O)cc(OC)c1	12	-2	0	8	4.9	-15	2050
Cc1cccc(-c2nc(C#N)c(NCc3ccco3)o2)c1	/	/	/	1	/	-65	3928
CCOc1cccc(-c2c(C(=O)N/N=C/c3ccsc3)nnn2-c2nonc2N)c1	/	/	/	-14	/	1	5164
CCOC(=O)N1CCN(C(=O)CCCCCn2c(=S)[nH]c3cc4c(cc3c2=O)OCO4)CC1	4	7	3	-12	9.6	-24	3864
O=C(COC(=O)c1ccccc1C(=O)c1ccc(Cl)cc1)NCC1CCCO1 (stereo unspecified)	-3	2	1	3	1.5	-26	4189
CN(CC(=O)Nc1ccccc1Br)CC(=O)NC(c1ccccc1)c1ccccc1	5	0	15	/	2.5	-17	4425
O=C(NN=Cc1cc2c(cc1[N+](=O)[O-])OCO2)c1cccnc1	-1	-8	-1	/	0.2	/	/
CCOC(=O)C1=NOC2COC3(CCN(c4ncccn4)CC3)OCC12 (stereo unspecified)	4	0	7	2	7.0	1	2202
O=C(COC(=O)/C=C/c1ccc2c(c1)OCO2)NC1CCS(=O)(=O)C1 (stereo unspecified)	12	-2	-1	-5	3.2	-5	4177
CC(CCc1ccccc1)NCc1ccc(Cl)cc1Cl (stereo unspecified)	-6	8	-5	3	6.7	-7	4199
Cc1cccc(NCc2nc(-c3ccccc3)no2)c1	/	/	8	4	-0.8	-39	5723
CCOC(=O)C1=C(C)NC(=O)NC1C1CC=CCC1 (stereo unspecified)	/	/	/	1	/	-2	4509
CCc1cc2c(NCC3CCCO3)nc(C)nc2s1 (stereo unspecified)	5	1	-2	5	5.5	-8	2647
CCn1c2ccccc2c2cc(NC(=O)CSc3nnc(-c4cccc(C)c4)o3)ccc21	7	6	-3	1	-8.1	-15	2849
O=C(CN1CCCCCC1)N/N=C/c1cccc(Cl)c1Cl	/	/	/	1	/	-43	2371
CCOc1ccccc1C(=O)N[C@H](C(=O)Nc1ccc(OC)c(S(=O)(=O)N2CCOCC2)c1)C(C)C	-2	12	1	/	1.5	-3	4336
Cc1ccccc1CSCC(Nc1ccc(C(=O)O)cc1[N+](=O)[O-])C(=O)O (stereo unspecified)	6	-6	5	2	2.1	-13	6937
Cc1cc(C(=O)Nc2c(F)c(F)c(F)c(F)c2F)n(-c2ccccc2)n1	9	-1	8	-6	0.9	-20	2281
CCCCc1nc(C(N)=O)c2[nH]c(=O)n(-c3ccccc3F)c2n1	7	8	-1	-7	1.9	-7	5100
Cc1ccc(O)c(CNc2cccc(C)n2)c1	8	5	4	-6	4.2	-25	3871
CC(C)(C)NC(=O)CN(C(=O)CS(=O)CC(=O)Nc1ccc(F)cc1)c1ccc2c(c1)OCCO2 (stereo unspecified)	10	3	4	1	0.9	-18	4109
CCOC(=O)c1ccc(N2C(=O)c3n[nH]c(C)c3C2c2ccc(O)cc2)cc1 (stereo unspecified)	-7	7	-5	-18	1.5	-12	9875
O=C(CSc1n[nH]c(=O)n1Cc1ccccc1)Nc1ccc(N2CCOCC2)cc1	-4	6	0	/	-0.8	9	6409
CC(=O)N1c2ccc(S(=O)(=O)NCC3CCC(C(=O)Nc4ccc(C)cn4)CC3)cc2CC1C (stereo unspecified)	-10	9	0	-3	2.4	-19	5842
CCCOc1ccc(N2CC(C(=O)Nc3ccc(N4CCOCC4)cc3)CC2=O)cc1 (stereo unspecified)	3	-1	2	4	0.1	-17	4201
Cc1cccc(C(=O)N/N=C/c2ccc3c(c2)OCO3)n1	/	/	/	8	/	7	4149
O=C(c1cccs1)N1CCN(c2ncc(C(F)(F)F)cc2Cl)CC1	19	7	7	-6	3.4	-6	6336
Cc1ccc(NC(=O)CCC(=O)c2cccs2)c(Br)c1	-3	3	3	-8	4.8	-31	6096
O=C(Nc1ccccc1C(=O)O)c1ccccc1	16	11	-10	3	12	9	4105
CCOC(=O)C1=C(N)n2c(s/c(=C\c3ccncc3)c2=O)=C(C(=O)OCC)C1c1ccncc1 (stereo unspecified)	/	/	/	-8	/	-13	3499
Cn1c(=O)c2c(SCc3cccnc3)nc(C3CC3)nc2n(C)c1=O	-4	3	22	-2	13	-22	4261
O=C(NC1CCN(C(=O)Nc2cccc(Cl)c2)CC1)c1ccccc1	-2	-1	-5	-4	3.1	-1	5727
CCOC(=O)C1CCCCN1Cc1ccc(OC)c(OC)c1OC (stereo unspecified)	-1	5	-6	-10	2.5	-4	21879*
O=C(c1ccc(CS(=O)(=O)c2ccccc2)o1)N1CCC2(CC1)OCCO2	-2	2	0	-4	5.5	-32	8733
N#Cc1cccc(NC(=O)CC2CCCC2)c1	7	13	-3	-11	0.3	-7	3774
COc1cc(C=NNC(=O)CN(Cc2ccco2)S(=O)(=O)c2ccccc2)ccc1O	1	1	2	/	1.7	/	/
COc1ccc(OC)c(-c2csc(N(CC3CCCO3)C(=O)C3CCCCC3)n2)c1 (stereo unspecified)	9	0	-3	6	4.6	-15	4103
CCC1CCC(N2CCN(c3cccc(OC)c3)CC2)CC1 (stereo unspecified)	3	-1	0	1	2.1	-19	3903
Cc1ccc(N2CN(Cc3ccco3)CNC2=S)cc1	-1	4	0	0	0.5	-16	4711
CCCn1c(SCC(=O)c2cc(C)ccc2C)n[nH]c1=O	-4	-7	-1	-3	8.7	-12	3675
Cc1onc(-c2ccccc2)c1C(=O)OCc1nnc(-c2ccc([N+](=O)[O-])cc2)o1	4	6	-8	/	10	-14	3866
CN1CCN(CCc2nc3cc(NC(=O)c4ccco4)ccc3n2C)CC1	6	6	4	-6	0.6	-11	/
S=C(Nc1ccccc1)Nc1ccc2ccccc2c1	13	3	-8	/	-8.9	-77	4429
CCC(C(=O)O/N=C(\N)c1ccccc1)c1ccccc1 (stereo unspecified)	/	/	14	2	0.7	-26	4429
COc1cc(/C=N/Nc2cccc3cccnc23)cc(OC)c1O	/	/	/	-2	/	-37	2366
CC(C)CC(=O)NCc1ccc2[nH]c3c(c2c1)CCCC3	8	1	17	21	0.7	-29	3510
CCOc1ccc(OCC)c(NC(=O)CN(C)S(=O)(=O)c2ccc3nc(C)sc3c2)c1	-11	-3	-6	4	0.7	-25	10921
COc1ccc(CCNC(=O)c2ccco2)cc1	/	/	-1	/	-0.3	-25	5258
CCOc1ccc(N(CC(=O)Nc2ccc(C)c(C)c2)S(C)(=O)=O)cc1	0	3	8	-13	1.3	-61	3713
O=C(CCCn1c(=S)[nH]c2ccccc2c1=O)NCCSCc1ccccc1	-4	-6	5	12	8.6	43	3197
Cc1ccc2oc(=O)c3cnn(CC(=O)N(Cc4ccco4)C4CCCCC4)c3c2c1	5	11	-8	-9	-11	-33	4670

The listing continues.
SMILES	Mtb hypoxia rep	Mtb hypoxia rep growth	ugtP null kill	BJeLR lethal	RN4220 kill	PrP 5UTR inh	Bead autofluor
O=C(c1ccccc1F)N1CCN(CC2CC3C=CC2C3)CC1 (stereo unspecified)	/	/	10	13	5.3	-1	3334
CCOC(=O)Cc1csc(SCC(=O)Nc2ccc(C)cc2F)n1	9	10	10	/	4.2	-6	/
S=c1[nH]c2cc(Cl)c3cccnc3c2o1	/	/	/	-1	/	-1	3653
Cc1ccc(C)c(N(C(=O)Cn2nnc3ccccc32)C(C(=O)NCc2ccco2)c2ccncc2)c1 (stereo unspecified)	/	/	5	-2	5.9	-6	4114
OCOCCCn1c(C2CCCN2c2nc(-c3ccc(F)cc3)cs2)nc2cc(Cl)c(N3CCCCC3)cc21 (stereo unspecified)	4	14	-23	-4	-7.5	-16	3184
CC(=O)Nc1ccc(S(=O)(=O)NNC(=O)c2ccc(S(=O)(=O)N3CCCCC3)cc2)cc1	-5	2	2	2	-2.3	-10	9650
CCOc1ccc(NC(=S)N2CCN(S(=O)(=O)c3ccccc3)CC2)cc1	-1	-5	5	/	-2.1	-10	4044
COc1ccccc1NC(=O)C(=O)N(c1cccnc1)C(C(=O)NC(C)(C)C)c1ccccc1 (stereo unspecified)	11	3	7	-2	2.2	-6	4440
O=C(c1cccc(S(=O)(=O)N2CCCCC2)c1)N1CCN(S(=O)(=O)c2ccc(F)cc2)CC1	/	/	/	5	/	-8	2454
Cc1nnc(-c2ccc(Cl)cc2)nc1NCCN(C)C	12	-2	-4	-3	3.1	0	1999
CCCNC(=O)CCc1c(C)nc2nc(C)nn2c1C	-3	-16	8	-9	7.5	1	2681
COc1ccc(CCNC(=O)c2ccc(=O)[nH]c2)cc1OC	8	6	8	-1	1.1	-19	4036
COc1ccc(NC(=O)C(=O)N/N=C(\C)CC(=O)Nc2ccccn2)c(OC)c1	/	/	/	-8	/	-13	4478
Cc1cc(NC(=O)c2ccc(COc3ccc(Cl)c(C)c3)o2)no1	0	5	3	19	-1.4	-7	9612
O=C(CCCCCN1C(=O)c2cccc3cccc(c23)C1=O)NCc1cccnc1	4	-3	5	80*	1.4	/	4120
Cc1ccccc1-c1n[nH]c(=S)n1/N=C/C=C/c1ccco1	/	/	/	-7	/	-14	3690
COc1cc2nc(Cl)nc(N3CCOCC3)c2cc1OC	2	-8	2	-5	1.1	-10	4689
CCN(CC)S(=O)(=O)c1cc(NC(=O)CCCOc2ccc(C(C)=O)cc2)ccc1C	0	-1	-1	7	5.2	6	2189
CC1(C)CC(N(Cc2cccs2)C(=O)c2ccco2)CCO1 (stereo unspecified)	/	/	1	4	6.3	-11	3510
Cn1cc(Br)c(NS(=O)(=O)c2ccc(Cl)s2)n1	7	-4	6	-5	4.6	-8	6120
CSc1nnc(C(C)(C)C)c(=O)n1N=Cc1ccc(Cl)cc1	-2	4	-3	/	0.9	/	/
COC(=O)c1scc(C)c1N/N=C(\C)c1ccc(F)cc1F	/	/	/	8	/	-3	2898
CCCCS(=O)CC(COCc1ccccc1)OC(=O)CSc1nc(C)cc(C)n1 (stereo unspecified)	10	1	-3	9	11	-15	3091

Structural class, the compounds so far containing a thiophene ring, fused or not
SMILES	Mtb hypoxia rep	Mtb hypoxia rep growth	ugtP null kill	BJeLR lethal	RN4220 kill	PrP 5UTR inh	Bead autofluor
CCOc1cccc(-c2c(C(=O)N/N=C/c3ccsc3)nnn2-c2nonc2N)c1	/	/	/	-14	/	1	5164
CCc1cc2c(NCC3CCCO3)nc(C)nc2s1 (stereo unspecified)	5	1	-2	5	5.5	-8	2647
O=C(c1cccs1)N1CCN(c2ncc(C(F)(F)F)cc2Cl)CC1	19	7	7	-6	3.4	-6	6336
Cc1ccc(NC(=O)CCC(=O)c2cccs2)c(Br)c1	-3	3	3	-8	4.8	-31	6096
CC1(C)CC(N(Cc2cccs2)C(=O)c2ccco2)CCO1 (stereo unspecified)	/	/	1	4	6.3	-11	3510
Cn1cc(Br)c(NS(=O)(=O)c2ccc(Cl)s2)n1	7	-4	6	-5	4.6	-8	6120
COC(=O)c1scc(C)c1N/N=C(\C)c1ccc(F)cc1F	/	/	/	8	/	-3	2898
